H5N1 CPE: antiviral screen in MDCK cells, H5N1 avian flu; cytopathic effect, luminescence, 72 h; stronger effect = higher value; no value below 0 was filed and about half of the inactive calls have no number; reference of the scale not given here; inhibition, % at 50 µM; 0.07% of 96,000 active; AID 740; in the data active = inhibition above about 25%
* hit, by the source's call; i = inactive. Not all compounds are listed (hit frequency here may not be typical).

The first 19 entries (preview)
SMILES	H5N1 CPE
Cc1cccc(NC(=S)NNC(=S)NCc2ccccc2)c1	0.2
CN(C)c1ccnc(N(Cc2ccccc2)Cc2ccccc2)c1C#N	i
CC(C)OC(=O)CSc1nnc(-c2ccco2)n1N	1.6
CC(C)CN(CC(C)C)C(=O)C12CCC(C)(C(=O)C1)C2(C)C (configuration not stated)	1.8
CC(C)(C)C(=O)NC1CCN(S(=O)(=O)c2ccccc2F)CC1	i
CCOC(=O)N1CCN(C(=O)c2cc(S(=O)(=O)N3CCCC3)cn2C)CC1	0.2
CCc1ccccc1NC(=O)C1NC(=O)CC1c1ccccc1 (configuration not stated)	0.3
CCOc1ccc(C(O)c2nccn2Cc2ccccc2)cc1 (configuration not stated)	0.4
CN1CCN(c2oc(-c3ccco3)nc2S(=O)(=O)c2ccccc2)CC1	1.5
Cc1cc(C(=O)CN(Cc2ccc(F)cc2)S(=O)(=O)c2ccc3c(c2)OCCO3)c(C)n1C	0.2
COc1ccc(NC(=O)C2CCN(C(=O)NCc3ccccc3)CC2)cc1	i
CN(C)C(=O)Oc1ccc(OC(=O)c2ccccc2)cc1	0.2
CCCNC(=O)CS(=O)(=O)Cc1nc(-c2ccccc2C)oc1C	i
Cc1nn(-c2ncc(C(F)(F)F)cc2Cl)c(=O)n1-c1ccccc1	i
Cc1cc(C)nc(Nc2n[nH]c(-c3cccc4ccccc34)n2)n1	i
Cc1cccc(-n2nc(C)cc2N)c1	0.1
O=c1[nH]c2c(c3c1CCCC3)CCCC2	0.7
CCCOC(=S)NC(=O)c1sc2ccccc2c1Cl	i
Cc1cccc(C)c1N1CC(=O)N(c2c(C)cccc2C)CC1=O	i

The whole of this part, previewed entries included:
SMILES	H5N1 CPE
Cc1cccc(NC(=S)NNC(=S)NCc2ccccc2)c1	0.2
CN(C)c1ccnc(N(Cc2ccccc2)Cc2ccccc2)c1C#N	i
CC(C)OC(=O)CSc1nnc(-c2ccco2)n1N	1.6
CC(C)CN(CC(C)C)C(=O)C12CCC(C)(C(=O)C1)C2(C)C (configuration not stated)	1.8
CC(C)(C)C(=O)NC1CCN(S(=O)(=O)c2ccccc2F)CC1	i
CCOC(=O)N1CCN(C(=O)c2cc(S(=O)(=O)N3CCCC3)cn2C)CC1	0.2
CCc1ccccc1NC(=O)C1NC(=O)CC1c1ccccc1 (configuration not stated)	0.3
CCOc1ccc(C(O)c2nccn2Cc2ccccc2)cc1 (configuration not stated)	0.4
CN1CCN(c2oc(-c3ccco3)nc2S(=O)(=O)c2ccccc2)CC1	1.5
Cc1cc(C(=O)CN(Cc2ccc(F)cc2)S(=O)(=O)c2ccc3c(c2)OCCO3)c(C)n1C	0.2
COc1ccc(NC(=O)C2CCN(C(=O)NCc3ccccc3)CC2)cc1	i
CN(C)C(=O)Oc1ccc(OC(=O)c2ccccc2)cc1	0.2
CCCNC(=O)CS(=O)(=O)Cc1nc(-c2ccccc2C)oc1C	i
Cc1nn(-c2ncc(C(F)(F)F)cc2Cl)c(=O)n1-c1ccccc1	i
Cc1cc(C)nc(Nc2n[nH]c(-c3cccc4ccccc34)n2)n1	i
Cc1cccc(-n2nc(C)cc2N)c1	0.1
O=c1[nH]c2c(c3c1CCCC3)CCCC2	0.7
CCCOC(=S)NC(=O)c1sc2ccccc2c1Cl	i
Cc1cccc(C)c1N1CC(=O)N(c2c(C)cccc2C)CC1=O	i
CCCCCCn1c(SCC(=O)c2c(N)n(C)c(=O)n(C)c2=O)nc2ccccc21	i

Part of the list above, set out differently.
SMILES | H5N1 CPE
CCCOC(=S)NC(=O)c1sc2ccccc2c1Cl | i
Cc1cccc(C)c1N1CC(=O)N(c2c(C)cccc2C)CC1=O | i

More records
SMILES	H5N1 CPE
Clc1cccc(Cl)c1/C=C/c1nc2ccccc2[nH]1	i
CCS(=O)(=O)CCSc1nc(C)cc(C)c1C#N	1.1
O=C(COC(=O)c1ccc(S(=O)(=O)N2CCCC2)cc1)NCc1ccccc1	i
CC(C)SCCCOc1ccc(C(C)(C)C)cc1	1.1
Cc1ccsc1/C=C1\SC(N2CCOCC2)=NC1=O	i
CC1=C(C(=O)OC(C)C)C(c2c[nH]c3ccccc23)n2ncnc2N1 (configuration not stated)	2.8
COc1cc(OC)cc(C(=O)NC(=S)Nc2cccnc2)c1	i
O=C(NCCCCc1ccccc1)C12CN(Cc3ccccc3)CC1C(c1cccc([N+](=O)[O-])c1)=NO2 (configuration not stated)	0.5
CNC(=O)/C=C1\NC(C)(C)Cc2ccccc21	0.3
O=C(CSc1nnc(-c2ccccn2)n1Cc1ccco1)Nc1ccc2c(c1)OCO2	0.2
CC(=O)Nc1c(O)n(C)c2ccccc12	0.3
CC(C)c1nnc(NC(=O)C2CCN(c3nc4ccccc4s3)CC2)s1	0.8
Cc1onc(-c2c(Cl)cccc2Cl)c1C(=O)Nc1ccc2c(c1)OCO2	0.9
O=C(Nc1nnc(-c2ccc3c(c2)OCCO3)o1)c1ccc(Cc2ccccc2)cc1	i
c1ccc(NCc2nnc3n2CCCCC3)cc1	i
O=C(C1CCN(S(=O)(=O)c2cccc3nsnc23)CC1)N1CCN(c2ccccc2F)CC1	1.8
O=C1CCCC(O)=C1C1C2=C(CCCC2=O)Oc2ccccc21 (configuration not stated)	i
CCc1ccccc1NC(=S)NC1CC2CCCC(C1)N2Cc1cccs1 (configuration not stated)	i
Cc1ccc(S(=O)(=O)N2CCN(Cc3cccc(C)c3O)CC2)cc1	i
O=C(Nc1cccc(Oc2ccc3c(c2)C(=O)NC3=O)c1)c1ccco1	i
O=C(COc1cc(O)c2c(=O)cc(-c3ccccc3)oc2c1)c1ccccc1	i
Cc1c(NC(=O)c2cc(-n3cnnc3)ccc2Cl)cccc1-c1nc2ccccc2s1	i
COC(=O)c1sccc1-c1ccc(C(=O)Nc2ccccc2)o1	3.4
Cc1ccc(NC(=O)C2CCCN(S(=O)(=O)c3ccc4c(c3)oc(=O)n4C)C2)nc1 (configuration not stated)	0.4
CCCOc1ccc(CCN2CCC(=O)NC2=O)cc1C	i
CCC(C)C1NC(=S)N(C2CCCCC2)C1=O (configuration not stated)	i
CC(=O)c1cccc(N=C2NC(=O)C(CO)(CO)S2)c1	i
Cc1ccc(NC(=O)CS(=O)CC(=O)NCCCN(C)c2ccccc2)cc1 (configuration not stated)	i
Cc1ccc(NC2=CC(=O)OC(C)C2)cc1 (configuration not stated)	i
Cc1cc(NC(=O)CSc2ccc(-c3nc4cc(C)c(C)cc4[nH]3)cn2)no1	0.1
COC(=O)c1c(-c2cccnc2)csc1NC(=O)c1cc(C)on1	i
COc1ccc(CNC(=O)Nc2cccc3ccccc23)cc1	i
O=C(NC1CCCC1)C1CCCN(S(=O)(=O)c2cnc[nH]2)C1 (configuration not stated)	i
CCOC(=O)C1CCN(Cc2cnc(NC(=O)OC)s2)CC1	i
CCOC(=O)C1=C(C)NC2=C(C(=O)CC(c3ccc(OC)c(OC)c3)C2)C1c1ccc(C)o1 (configuration not stated)	i
Cc1nc2ncnn2c(N2CCN(C(c3ccccc3)c3ccccc3)CC2)c1C	0.5
CCOC(=O)C1(CC)NC(c2ccco2)C2C(=O)N(c3ccc(C)cc3)C(=O)C21 (configuration not stated)	0.7
COC(=O)CSc1nnc(-c2cccs2)n1-c1ccc(Cl)cc1	1.8
COc1ccc(-c2nc(NC(=O)c3ccccc3)sc2-c2ccc([N+](=O)[O-])cc2)cc1	i
FC(F)(F)c1cc(-c2cccs2)nc(-n2cc(Br)cn2)n1	i
O=[N+]([O-])c1cccc(/C=N/n2c(COc3ccccc3)n[nH]c2=S)c1	0.5
Cc1cc2nc(SCC(=O)N(C)C)c3c(c2cc1C)CCCC3	8.2
CSc1nc2nccc(-c3ccc(Oc4ccccc4)cc3)n2n1	i
C=CCOC(=O)C1=C(C)NC(SC)=C(C#N)C1c1ccc(OCC)cc1 (configuration not stated)	0.6
CCN(CC)C(=O)c1sc(NC(=O)Cc2cccs2)c(C#N)c1C	0.4
COc1ccc(-n2nnc3c(=O)n(Cc4cc(C)ccc4C)cnc32)cc1	i
O=c1[nH]c2ccccc2n1CCC1CCCCC1	0.2
C=CCc1ccc(OCCCN2CCCC(C)C2)c(OC)c1 (configuration not stated)	i
O=C(CSc1ccccn1)Nc1nc2ccc(Br)cc2s1	i
CC1=NN(C(=O)c2c(Br)cnn2C)C(O)(C(F)(F)F)C1 (configuration not stated)	0.7
(list continues)
SMILES	H5N1 CPE
CC(Sc1nc(N2CCOCC2)c2c(c1C#N)CC(C)(C)OC2)C(=O)Nc1ccccc1 (configuration not stated)	0.8
CC(=O)c1cccc(N(CC(=O)N2CCCCC2)S(C)(=O)=O)c1	0.1
CN(Cc1ccccc1)C(=O)c1ccc2c(c1)OCO2	i
COc1ccc2[nH]c(=O)c(CN(CCCN3CCOCC3)C(=O)NCc3ccccc3)cc2c1	0.4
CCCc1nc(SCC(=O)Nc2nc3c(s2)CCCC3)c2ccccc2n1	i
O=c1cc(-c2ccccc2)nc(N2CCN(Cc3ccccc3)CC2)[nH]1	i
Cn1c(=O)c2[nH]c(CN(Cc3ccccc3)Cc3ccccc3)nc2n(C)c1=O	1.9
Cc1ccc(C)c(Cn2nnc3c(=O)[nH]c(C4CCCN(C(=O)CC(C)C)C4)nc32)c1 (configuration not stated)	1.0
O=C(OCc1nnc(-c2ccc(Cl)cc2)o1)c1ccc(=O)n(Cc2ccccc2)n1	i
COc1ccc(NC(=O)NC23CC4CC(CC(C4)C2)C3)cc1OC	2.8
NC(=O)c1ccc(F)cc1	i
CC(C)[C@H](NC(=O)Nc1ccc2c(c1)OCCO2)C(=O)O	0.5
COc1ccc(-c2cnn3c4c(c(C)nc23)CCN4C2CCCC2)cc1OC	i
O=C(NCc1ccco1)c1ccc(S(=O)(=O)c2cccc(S(=O)(=O)N3CCOCC3)c2)cc1	2.2
c1ccc(C2=NCCCN2)cc1	i
O=C(CCN1C(=O)c2ccncc2C1=O)Nc1ccc2c(c1)OCCO2	2.0
Cc1cccc(NC(=O)c2cc(N3C(=O)CCC3=O)ccc2Cl)n1	0.2
C=C(C)C(=O)OCCCCCCOc1ccc(C(=O)O)cc1	0.3
O=C(CCS(=O)(=O)c1ccc(Br)cc1)N1CCN(c2ccccc2Cl)CC1	i
CCC1CCCCN1c1cc(C)nc2cc(-c3cccc(C)c3)nn12 (configuration not stated)	i
CCOc1c2ccc(C(=O)NCc3ccc(OC)cc3)cc2nn1CCOC	1.4
Cc1sc2nc(SCC(=O)NCc3ccco3)n(C)c(=O)c2c1C	3.2
O=C(Nc1ccccc1C(F)(F)F)N1CCN(C(c2ccccc2)c2ccccc2)CC1	i
Cc1ccc(-n2nc(C)cc2NC(=O)COc2cc(C)cc3oc(=O)c4c(c23)CCC4)cc1	2.4
O=C(CSc1nnc(-c2ccc(O)cc2)n1Cc1ccco1)c1ccccc1	i
COc1ccc(NC(=O)N2CCCC2C(=O)Nc2ccc(C)cc2)cc1 (configuration not stated)	i
COc1ccc(NC(=O)c2c(SC)nsc2SC)cc1	i
COc1ccc(C(=O)OC(C)CN2CCN(C)CC2)cc1OC (configuration not stated)	1.0
O=C(c1ccco1)N1CCCSC1=Nc1ccccc1	i
Cn1c(-c2ccc3ccccc3n2)nc2cnccc21	1.3
CCOC(=O)N1CCN(S(=O)(=O)c2cc(Cl)ccc2Cl)CC1	0.0
CCc1nnc(NC(=O)c2ccc(-c3ccccc3Cl)o2)s1	i
CCOc1cc(C(=O)NCc2ccc(-c3nc4ccccc4o3)cc2)cc(OCC)c1OCC	i
Cn1c(O)c(C=NC2C(=O)C3(C)CCC2C3(C)C)c(=O)n(C)c1=O (configuration not stated)	2.7
O=C(Nc1ncc2c(n1)CC(c1ccco1)CC2=O)c1ccc(Cl)cc1 (configuration not stated)	1.9
O=C(CSc1ncn[nH]1)Nc1ccc2c(c1)OCCO2	0.3
O=C(Cn1c(-c2cncs2)nc2ccccc21)NCc1ccccc1	i
CCOC(=O)N1CCN(C(=O)C(=O)Nc2ccc3nc4n(c(=O)c3c2)CCCCC4)CC1	0.5
CC(C)CC(NC(N)=O)C(=O)OCC(=O)NC(=O)NC1CCCC1 (configuration not stated)	i
COC(=O)C(C(=O)OC)C(C)C(C(=O)OC)C(=O)OC	0.5
O=C(OCc1ccccc1)c1cccc(-c2nnc(-c3ccccc3)o2)c1	i
COC(=O)c1nn(-c2ccccc2)ccc1=O	0.8
CCOc1ccc(C(=O)Nc2ccc(N3CCCC3)cc2)cc1	i
Cc1nc(NC2=NC(C(=O)Nc3ccc(Cl)cc3)CC(=O)N2)nc2ccccc12 (configuration not stated)	i
O=C(CC1N=C2c3ccccc3N=C(SCc3ccc(F)cc3)N2C1=O)NCc1ccco1 (configuration not stated)	1.1
COc1ccc(N2CCN(C(c3cccc(OC)c3OC)c3nnnn3C3CCCC3)CC2)cc1 (configuration not stated)	i
O=S(=O)(Nc1nc2ccccc2nc1Nc1ccc2c(c1)OCCO2)c1cccs1	i
Cc1nn(Cc2ccc(Cl)cc2Cl)c(C)c1NC(=O)c1nn(C)cc1Cl	i
COc1ccccc1C1CC(c2ccc(Cl)cc2Cl)Nc2nc(N)nn21 (configuration not stated)	0.1
CC1=C(C(=O)OCCOC(C)C)C(c2cc3c(cc2Br)OCO3)C2=C(CCCC2=O)N1 (configuration not stated)	0.3
Additional results
SMILES	H5N1 CPE
Cc1ccc(CS(=O)(=O)CCC(=O)NCc2ccccn2)cc1	i
Cc1cc(C)cc(NC(=O)CSc2nc3ccncc3[nH]2)c1	i
Cn1nnnc1-c1cc(Br)ccc1NC(=O)c1ccccc1	i
Cc1ccc(C)c(OCCCCn2cnc3ccccc3c2=O)c1	i
Fc1ccccc1/C=C1\CCCC2=C1Nc1nnnn1C2c1ccccc1F (configuration not stated)	i
Cc1ccc(-n2nc3c(c2NC(=O)c2ccc(OC(C)C)cc2)CS(=O)C3)cc1 (configuration not stated)	0.3
CCCNCc1cc(OCC)c(OCC(N)=O)cc1Br	0.1
COc1ccccc1N1CCN(C(=O)CC2NC3CCCCC3NC2=O)CC1 (configuration not stated)	i
CCc1c(C)nc2ncnn2c1N1CCC(C(=O)N2CCN(c3ccc(F)cc3)CC2)CC1	1.9
Nc1c(S(=O)(=O)c2ccccc2)c2nc3ccccc3nc2n1Cc1ccco1	2.3
CCCCC1CC(CSc2ncn[nH]2)OC1=O (configuration not stated)	1.9
CCOc1ccc(NC(=O)CN2CCN(CC(=O)Nc3ccc4c(c3)OCCO4)CC2)cc1	i
CCOC(=O)N1CCN(C(=O)c2ccc3c(=O)n(Cc4ccccc4)c(=S)[nH]c3c2)CC1	i
CCc1c(C)nc2c(C#N)c(C)[nH]n2c1=O	i
